# PrP 5UTR inh – inhibition of PrP 5' UTR reporter expression | inhibition, % (no concentration beside the values) | cell-based PrP 5' UTR mRNA reporter, plate reader | actives 0.35% (n = 340,000) | AID 488862, 2010;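 active = every replicate at 50% or more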;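 note: 0 = median of the neutral control wells; tested in H4 reporter cells; numbers are from one replicate; inactives centre near -14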
# Mtb hypoxia inh – PubChem AID 1159583; M. tuberculosis hypoxia-regulated fluorescent reporter, fluorescence; fluorescence inhibition, % (concentration not given with the values); actives 0.1% (n = 300,000);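 active = 35 to 45% if threefold the growth effect, above 45% if 1.5-fold the growth effect; inactive = the rest, general growth blockers included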;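 note: wells of about 50 µL received 100 nL stock; 0% = vehicle wells and 100% = reference inhibitor wells; whole bacteria with a GFP reporter of the hypoxia response; strong numbers were not always called active; many hits fall short of the cut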
# Autofluor counter – compound fluorescence in toxin protease inhibitor counterscreen; compound autofluorescence counterscreen, microsphere flow cytometry; active compounds read high; fluorescence intensity (no concentration beside the values); actives 3.1% (n = 360,000); AID 624483;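 active = at least 3 SD above the mean of all compounds, about 16000 in these data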;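 note: 100 nL of 1 mM stock went into each well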
# ugtP null kill – growth inhibition of ugtP-null S. aureus, primary screen, RN4220 ugtP deletion, OD600 | 16 h; some inactives read as strong as hits | growth inhibition, % (concentration not given with the values) | actives 0.54% (n = 330,000);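 active = z-score under -3 and OD600 up to 0.15 on both plates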;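 note: plate controls were untreated wells for no effect and antibiotic for full effect; wells of about 80 µL received 100 nL stock; the first replicate is given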
# RN4220 kill – growth inhibition of S. aureus RN4220, primary screen, OD600. actives 0.33% (n = 330,000). inhibition, % (no concentration beside the values). 16 h. AID 1259311, 2017;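 active = z-score of -3 or lower and OD600 up to 0.18 on both plates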;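 note: plate controls were untreated cells for no effect and reference antibiotic for full effect; stock transfer was 100 nL into about 80 µL; one replicate is shown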
# BJeLR lethal – MLPCN primary cell-based screen for lethality selective to Ras in HRASV12 cells; BJeLR (HRASV12) viability, CellTiter-Glo ATP luminescence, 48 h; reference of the scale not given here; inhibition, % (concentration not given with the values); actives 0.17% (n = 300,000);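 active = replicate mean above 50%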;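 note: 50 nL library stock added to about 25 µL; numbers are from one replicate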
# Mtb hypoxia inh growth – also measured in Mtb hypoxia inh; calls as there; growth inhibition, %; measured here: M. tuberculosis growth (absorbance);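 0% = vehicle and 100% = reference antibiotic; read after six days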
# An asterisk follows results filed as active; . = not tested or not shown.
SMILES,PrP 5UTR inh,Mtb hypoxia inh,Mtb hypoxia inh growth,Autofluor counter,ugtP null kill,RN4220 kill,BJeLR lethal
COc1ccccc1NC(=O)CSc1nnc(-c2ccc(C)cc2)o1,-17,2,4,7329,0,2.0,8
CC1=C(C(=O)N2CCOCC2)C(c2c(C)cc(C)cc2C)NC(=S)N1 (stereo unspecified),-17,3,4,4342,-4,1.6,10
COCCN(Cc1cc2cc(C)cc(C)c2nc1Cl)C(=O)Nc1ccccc1,-9,12,-5,10351,7,-3.7,-1
COc1ccc(N2CCN(S(=O)(=O)CCNC(=O)COc3ccc(Cl)cc3)CC2)cc1,-4,3,3,5698,3,0.9,8
CC(=O)Nc1ccc2nc(NC(=O)COc3ccc(C)cc3)sc2c1,-17,-1,1,3312,10,-0.8,3
CN1C(=O)/C(=C/c2cccc(Cl)c2)Sc2ccc(C(=O)NCc3cccnc3)cc21,.,9,0,4751,12,6.7,3
COc1ccccc1-c1ocnc1C(=O)N1CCN(C(=O)C(c2ccccc2)c2ccccc2)CC1,0,-1,-2,3722,8,2.3,-2
O=C(Nc1cccc(-n2cnnn2)c1)c1cnccc1Cl,-8,4,-4,5820,3,-1.0,7
O=C(CCn1c(=O)[nH]c2ccsc2c1=O)N1CC(=O)N(CCc2ccccc2)C(=O)C1,-40,3,6,23732*,-2,3.9,-9
CCOC(=O)c1c(C)nc2sc3c(=O)n(-c4ccc(C(C)=O)cc4)nnc3c2c1-c1ccc(Cl)cc1,-15,-5,15,2940,-15,3.4,-1
CCn1cc(C(=O)NCc2cccc(C(F)(F)F)c2)c(=O)c2ccc(C)nc21,-13,3,-2,3768,10,8.2,-5
O=[N+]([O-])c1ccc(NN=C2CCCCC2c2ccccn2)c([N+](=O)[O-])c1 (stereo unspecified),.,-1,0,.,1,-3.1,.
COCCN(C(=O)CCN1C(=O)C2CC=CCC2C1=O)c1c(N)n(CC(C)C)c(=O)[nH]c1=O (stereo unspecified),-8,4,-5,3466,4,3.5,.
Cc1ccccc1CCN1CCCC(CN(C)C(=O)C(=O)c2ccco2)C1 (stereo unspecified),-2,-3,-1,4873,-6,-3.3,0
O=C1NS(=O)c2cc([N+](=O)[O-])cc([N+](=O)[O-])c21 (stereo unspecified),-2,0,9,4374,4,3.5,3
CCOc1ccc(C2Sc3ccccc3NC3=C2C(=O)OC3)cc1 (stereo unspecified),-41,3,-5,2666,30,1.5,18
CCOc1ccccc1C(=O)Oc1ccc2ccc(=O)oc2c1,-40,21,2,3983,6,0.0,-3
COc1ccc(NC(=O)c2c(Cl)n(C)c3ccccc23)cc1,-56,.,.,4103,6,-2.3,36
CC(C)=CCOc1ccc2c(C)c(CC(=O)N3C[C@H]4C[C@@H](C3)c3cccc(=O)n3C4)c(=O)oc2c1C,-13,.,.,4011,5,3.3,-7
COc1cc(C)c(Br)cc1S(=O)(=O)NCc1ccncc1,-9,7,5,3561,3,6.3,17
O=P(O)(c1ccc(Cl)cc1)c1ccc(Cl)cc1,-9,0,1,2893,-4,-22,8
CNS(=O)(=O)c1cc(Nc2ncnc3sccc23)ccc1C,-8,2,-6,4234,-2,0.7,2
CN(C(=O)c1ccoc1)c1ccc2ccccc2c1,-21,3,-3,6240,2,-0.6,-1
Oc1c(I)cc(Cl)c2cccnc12,27,3,1,3972,100*,99*,9
Cc1ccc(S(=O)(=O)NN=Cc2ccc(OC3CSC3)cc2)cc1,.,-5,2,.,-2,-0.9,.

# Filtered by structure, the entries above containing an aryl methoxy group
SMILES,PrP 5UTR inh,Mtb hypoxia inh,Mtb hypoxia inh growth,Autofluor counter,ugtP null kill,RN4220 kill,BJeLR lethal
COc1ccccc1NC(=O)CSc1nnc(-c2ccc(C)cc2)o1,-17,2,4,7329,0,2.0,8
COc1ccc(N2CCN(S(=O)(=O)CCNC(=O)COc3ccc(Cl)cc3)CC2)cc1,-4,3,3,5698,3,0.9,8
COc1ccccc1-c1ocnc1C(=O)N1CCN(C(=O)C(c2ccccc2)c2ccccc2)CC1,0,-1,-2,3722,8,2.3,-2
COc1ccc(NC(=O)c2c(Cl)n(C)c3ccccc23)cc1,-56,.,.,4103,6,-2.3,36
COc1cc(C)c(Br)cc1S(=O)(=O)NCc1ccncc1,-9,7,5,3561,3,6.3,17

# The results go on:
SMILES,PrP 5UTR inh,Mtb hypoxia inh,Mtb hypoxia inh growth,Autofluor counter,ugtP null kill,RN4220 kill,BJeLR lethal
Cc1c(-c2nn(C)c(=O)c3ccccc23)oc2ccc(F)cc2c1=O,-12,15,8,2449,1,8.3,0
O=S(=O)(O/N=C1\CCCc2ccccc21)c1ccc(Cl)cc1,-10,.,.,4606,.,.,11
CCOc1ccc2ccccc2c1C1NC(=S)N(C)C(C)=C1C(=O)OC (stereo unspecified),-21,9,-7,4230,7,-0.4,-4
COc1ccc(C(=O)NN2CCOCC2)cc1,18,4,6,5701,4,3.1,0
CC(C)(C)OC(=O)CNC(=O)c1[nH]cnc1C(=O)N[C@@H](Cc1ccccc1)C(=O)OC(C)(C)C,-22,.,.,3799,.,.,4
CN1CCc2c(sc3c2c(=O)n(-c2ccccc2)c2nnc(SCc4ccccc4)n32)C1,-10,-1,7,4224,-6,2.8,1
Cc1[nH]c2ccccc2c1C(=O)CSC(=S)N1CCN(C)CC1,-26,21,12,3006,-9,4.3,-9
Cc1cc(C)cc(N2C(=O)C3CC=CCC3C2=O)c1 (stereo unspecified),-22,9,8,6520,-2,2.1,1
COc1ccc(CNC(=O)CN(Cc2ccco2)C(=O)CNS(=O)(=O)c2ccccc2)cc1,0,-14,-1,5953,4,0.0,0
Cc1ccc(-n2nc3c(c2NC(=O)C(C)(C)C)CS(=O)(=O)C3)cc1,3,-2,-6,5259,3,1.7,-10
COc1ccccc1CNC(=O)C1CCC(CNS(=O)(=O)c2cccs2)CC1 (stereo unspecified),-24,5,6,3985,7,2.8,-11
COc1ccc(OC)c(C2SCCN2S(=O)(=O)c2cccc(C(F)(F)F)c2)c1 (stereo unspecified),-41,6,8,9816,30,14,3
COCCN1C(=O)c2oc3ccccc3c(=O)c2C1c1ccc(C(=O)OC)cc1 (stereo unspecified),-21,.,.,4491,3,2.3,-3
Cc1nc(N2CCN(c3ccccn3)CC2)c2c(C)c(C(=O)Nc3c(F)cc(F)cc3Br)sc2n1,-20,4,3,5241,9,-1.6,1
COC(=O)c1sccc1NC(=O)COc1ccc(F)cc1Cl,-52,6,-6,3466,3,4.8,13
CC(=O)Oc1ccc(-c2nc(-c3cccnc3)no2)cc1,-60,5,3,3158,5,5.4,7
O=C(OCC(=O)N1CCc2ccccc21)c1ccccn1,-16,1,-5,4394,5,2.6,-1
O=C(CSc1nc2ccccc2o1)Nc1nc2ccc(Br)cc2s1,-20,.,.,2490,2,-5.6,-4
COc1ccc(CN2CCNC(=O)C2CC(=O)N(Cc2nccn2C)C(C)C)c(OC)c1 (stereo unspecified),-10,14,10,4251,4,5.3,19
CCOc1cc(C=NNC(=O)c2cccnc2)ccc1OC(=O)c1ccco1,.,13,4,.,8,-1.0,.
NC(=O)CSc1cn(Cc2ccc(F)cc2)c2ccccc12,-16,7,10,6042,1,-8.8,3
Cc1ccc(S(=O)(=O)N(C)c2ccc(C(=O)NCc3ccccn3)cc2)cc1,-4,6,1,4547,7,6.8,.
NCCCCC1NC(=O)c2cc([N+](=O)[O-])cc(F)c2NCCCCC(C(N)=O)NC(=O)C(CCC(N)=O)NC1=O (stereo unspecified),.,3,-1,.,4,3.9,.
Cc1nn(C(C)C(=O)N/N=C/c2ccc(N(C)C)cc2)c(C)c1[N+](=O)[O-] (stereo unspecified),-4,.,.,3536,.,.,-3
O=C(CN1C(=O)NC(c2ccccc2)(c2ccccc2)C1=O)NC1CCCCC1,-16,9,-2,7781,7,5.1,.
# (continued)
SMILES,PrP 5UTR inh,Mtb hypoxia inh,Mtb hypoxia inh growth,Autofluor counter,ugtP null kill,RN4220 kill,BJeLR lethal
O=C(Nc1ccc2c(c1)oc1ccccc12)c1ccc(Br)o1,-79,.,.,4869,-13,-9.1,3
Cc1ccc(Cn2c(NCCCn3ccnc3)nc3c2c(=O)n(C)c(=O)n3C)cc1,-3,-7,17,3160,-10,-4.7,6
COc1ccc(Cl)cc1N(CC(=O)NCCSCc1ccccc1)S(C)(=O)=O,-9,9,5,3195,9,6.3,-1
CCOc1ccc(NC(=O)CN(C)CC(=O)NC(C)c2ccccc2)cc1OCC (stereo unspecified),-14,16,10,4107,4,10,41
CNC(=O)c1ccc(-c2ccc(F)cc2)s1,-41,.,.,2733,-8,2.3,4
Cc1ccc(/C(C#N)=C\c2ccc(N3CCOCC3)o2)cc1,-168,-2,4,10448,-12,2.6,6
N#Cc1c(NC(=O)CSc2nnc(-c3ccccc3O)n2-c2ccccc2)sc2c1CCCC2,-2,.,.,4691,1,-0.3,-7
COc1ccc(Cc2nnc(SC)[nH]c2=O)cc1,-32,7,2,7987,6,4.2,6
CCN(C(=O)CCCCC(=O)N(CC)c1ccccc1)c1ccccc1,-19,10,2,3607,7,4.6,-8
C/C(=N\NC(=O)CNC(=O)c1cccnc1)c1cccc(O)c1,-19,.,.,3722,.,.,-1
Nc1nnc(SC2CC(=O)N(c3ccccc3)C2=O)s1 (stereo unspecified),-7,11,-4,.,5,3.7,2
CCOC(=O)C1CCCN(C(=O)C(=O)c2cn(CC(=O)N3CCOCC3)c3ccccc23)C1 (stereo unspecified),-3,-6,-13,19022*,5,-1.6,3
Cc1cc(C)c(S(=O)(=O)NCC2CCC(C(=O)N3CCC4(CC3)OCCO4)CC2)c(C)c1 (stereo unspecified),-16,18,6,13062,2,2.0,0
O=C(COC(=O)c1ccccc1O)Nc1cccc(S(=O)(=O)NC2=NCCCCC2)c1,-21,13,-2,4507,2,3.7,1
Cc1ccc(C(=O)N2CCN(c3ccccc3)CC2)cc1S(=O)(=O)N1CCCC1,-11,15,16,2644,14,6.4,-1
CC(C)N1CCC(N2CCN(C3CCCCC3)CC2CCO)CC1 (stereo unspecified),-4,-3,-2,3425,-4,-1.8,6
COc1cc(C(=O)Nc2ccc(S(=O)(=O)Nc3cnc4ccccc4n3)cc2)cc(OC)c1OC,-16,-6,-1,3633,0,8.0,-1

# Single values from above:
# `COCCN1C(=O)c2oc3ccccc3c(=O)c2C1c1ccc(C(=O)OC)cc1` (stereo unspecified) in RN4220 kill shows 2.3
# `Cc1cc(C)c(S(=O)(=O)NCC2CCC(C(=O)N3CCC4(CC3)OCCO4)CC2)c(C)c1` (stereo unspecified) in PrP 5UTR inh shows -16
# `N#Cc1c(NC(=O)CSc2nnc(-c3ccccc3O)n2-c2ccccc2)sc2c1CCCC2` in Autofluor counter shows 4691

# High-throughput results: PubChem BioAssay, several laboratories
